Assay outcomes as filed in PubChem BioAssay.
GALR2 agonist: GALR2 (human) receptor agonism | AID 803 | activation, %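 (tested at 5 µM)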 | GALR2-expressing cells, agonist activation read-out | O43603 | 140,000 compounds, 0.48% hits;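 active means above mean plus 3 SD of all compounds, about 5% in these data, not always enough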;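 further: 0% = vehicle buffer wells and 100% = reference agonist at full effect; tested in CHO reporter cells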
Target sequence (O43603 whole entry, looked up): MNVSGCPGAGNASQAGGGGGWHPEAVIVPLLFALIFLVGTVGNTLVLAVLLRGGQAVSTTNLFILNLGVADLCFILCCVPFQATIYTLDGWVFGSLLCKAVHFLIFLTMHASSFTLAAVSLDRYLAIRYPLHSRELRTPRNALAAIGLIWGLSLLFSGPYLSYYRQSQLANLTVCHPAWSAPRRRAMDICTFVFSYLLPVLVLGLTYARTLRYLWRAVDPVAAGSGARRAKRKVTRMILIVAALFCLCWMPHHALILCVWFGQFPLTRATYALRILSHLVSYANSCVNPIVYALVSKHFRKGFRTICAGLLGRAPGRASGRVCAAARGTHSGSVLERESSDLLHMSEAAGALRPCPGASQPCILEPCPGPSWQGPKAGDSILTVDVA
HSV augment: HSV replication enhancement; HSV replication augmentation in cells, fold increase; maximum fold increase; 220,000 compounds, 0.005% hits; AID 1956;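 active means peak rise of 1.5-fold or more in the series; tested in PC3 cells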;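 further: first round at 10 µM; read as green reporter fluorescence; hits show the peak of a series up to 25 µM; 1 = signal of infected wells without compound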
Insulin prom inh: TRM-6 insulin promoter activity inhibition; TRM-6 cells (human fetal islet line), insulin promoter-eGFP reporter, imaging; reporter expression induced with tamoxifen; inhibition, % at 2 µM; 130,000 compounds, 0.9% hits; AID 1273;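 active means inhibition above the mean plus 3 SD, with well images judged a real hit on visual review, cut at about 60% in these data, passing the limit was not always enough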
PKD1 inh: inhibitors of human PKD1 kinase; Q15139; PKD1 kinase fluorescence polarization assay; inhibition, %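 (about 10 µM by stock and volumes)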; 200,000 compounds, 0.056% hits; AID 797;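 active means inhibition of 50% or more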;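 further: controls were vehicle for no effect and a reference inhibitor for full effect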
RGS16-Gao HTS: regulators of human RGS16-Galphao interaction. 220,000 compounds, 0.38% hits. bead-based flow cytometry RGS16-Galphao binding, fluorescence; actives lie on both sides. binding response (% of control), % at 10 µM. O15492+P09471;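 active means below 25% or above 175%, edge rows of some plates excepted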;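 further: Galphao activated by GDP with aluminum fluoride before binding; 100% = wells without compound and 0% = beads without RGS; some results beyond the cut were filed as inactive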
Target sequence (O15492 whole entry, looked up): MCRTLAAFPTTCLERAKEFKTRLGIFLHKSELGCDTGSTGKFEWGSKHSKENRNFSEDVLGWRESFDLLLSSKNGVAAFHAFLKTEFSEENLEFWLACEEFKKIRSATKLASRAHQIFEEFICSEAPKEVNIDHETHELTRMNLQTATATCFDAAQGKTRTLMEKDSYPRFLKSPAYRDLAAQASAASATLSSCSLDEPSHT
Target sequence (P09471 whole entry, looked up): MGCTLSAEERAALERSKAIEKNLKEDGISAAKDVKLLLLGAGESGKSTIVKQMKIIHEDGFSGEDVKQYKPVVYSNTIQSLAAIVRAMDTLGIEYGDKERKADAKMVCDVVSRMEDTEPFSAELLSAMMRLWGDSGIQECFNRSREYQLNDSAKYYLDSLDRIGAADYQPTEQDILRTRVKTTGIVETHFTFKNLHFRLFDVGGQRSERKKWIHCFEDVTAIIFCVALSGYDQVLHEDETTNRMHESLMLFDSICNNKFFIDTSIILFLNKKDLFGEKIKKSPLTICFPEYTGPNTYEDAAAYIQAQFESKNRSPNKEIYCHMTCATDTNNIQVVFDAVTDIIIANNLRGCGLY
Insulin prom inh cell count: also measured in Insulin prom inh; calls as there; normalized cell count, %; measured here: cell count, toxicity; reference of the scale not given here;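 cells exposed to compound for 48 h; stained nuclei by imaging scaled within each plate; lower means fewer cells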
HSV augment primary fold: second read-out of HSV augment, no call of its own (marks repeat the call); fold increase; compound at 10 µM; measured here: primary screen fold increase 10 uM; tested in PC3 cells;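 GFP signal in the first replicate; 1 = infected wells without compound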
An asterisk follows results filed as active; i = inactive; . = no result given.

SMILES	GALR2 agonist	HSV augment	HSV augment primary fold	Insulin prom inh	Insulin prom inh cell count	PKD1 inh	RGS16-Gao HTS
CC(C)c1ccc(NC(=O)CSC(C)c2nc3ccccc3c(=O)[nH]2)cc1 (stereo not given)	.	i	1.1	.	.	.	103
COc1cc(S(=O)(=O)N(Cc2ccccn2)Cc2ccco2)ccc1-n1cnnn1	-0.7	i	0.94	-31	152	-5	46
O=C(Cn1cc(C(F)(F)F)ccc1=O)N/N=C/c1ccc(Cl)cc1	-0.4	i	0.96	-52	96	0	83
O=C(CCc1nc2ccccc2c(=O)[nH]1)Nc1ccc(F)c([N+](=O)[O-])c1	.	i	0.82	-14	63	1	102
Cc1cc(C)c2c(c1)/C(=C/C(=O)c1ccc(Br)s1)C(=O)N2	-1.0	i	0.74	.	.	8	115
Cc1cc(NC(=O)c2ccc(N(C)S(=O)(=O)c3ccccc3)cc2)no1	-1.4	i	0.83	19	133	1	104
COc1ccccc1N1CCN(C(=O)C(Cc2ccccc2)NC(=O)C2CCCCC2)CC1 (stereo not given)	-1.3	i	1.1	-150	110	-5	99
CC(C)CC(c1nnnn1Cc1ccco1)N1CCN(c2cccc(Cl)c2)CC1 (stereo not given)	-1.9	i	1	.	.	-12	193
CC(C)=C1C2C=CC1C(C(=O)Nc1cc(C)ccc1C)C2C(=O)O (stereo not given)	-0.2	i	0.93	-128	67	-5	103
COc1ccccc1CC(=O)NCc1csc(-c2cccs2)n1	.	i	0.98	.	.	.	98
CCOC(=O)N1CCC(NC(=O)CCCN2C(=O)CSc3ncccc32)CC1	-2.0	i	0.88	.	.	-9	81
COc1ccc(OCCn2cc(/C=N/NC(=O)c3ccncc3)c3ccccc32)cc1	-1.0	i	0.93	14	58	6	55
COc1cccc(Sc2ccccc2CN(C)C)c1	-3.7	i	0.86	29	98	3	103
O=C1c2ccccc2NC(c2ccccn2)N1NS(=O)(=O)c1ccccc1 (stereo not given)	.	i	1	56	127	-4	104
Cc1ccc(/C=C/C(=O)O)cc1S(=O)(=O)NCc1cccnc1	.	i	0.88	.	.	.	92
CN(c1ccccc1)S(=O)(=O)c1cccc(Cl)c1Cl	.	i	0.93	.	.	.	95
Cc1cc(C)cc(NC(=O)CSc2nnc(-c3ccccc3C)o2)c1	-2.4	i	1	13	60	1	-635
COC(=O)[C@H](CCSC)NC(=O)Nc1ccc(C)cc1C	-0.9	i	0.91	.	.	-4	87
COc1ccc(C(=O)Cn2c(Cl)nc3c2c(=O)n(C)c(=O)n3C)cc1	.	i	1.1	.	.	.	107
COc1ccc(NC(=O)CSc2nc(C)cc(C)n2)c([N+](=O)[O-])c1	.	i	1	.	.	-5	107
S=C(Nc1cccnc1)NC1CCCC1	-0.8	i	1.3	.	.	-6	99
O=C1CSc2ccc(C(=O)Nc3cccc(S(=O)(=O)Nc4ccc(Br)cc4)c3)cc2N1	.	i	0.91	0	80	-1	96
Cc1cccc(-c2noc(C3CCCCC3)n2)c1	-2.2	i	0.94	.	.	-3	101
C=CCCCOc1ccc(C(=O)O)cc1	-4.6	i	1.1	35	41	-7	103
O=C1C2C3C=CC(CC3)C2C(=O)N1/N=C/c1ccccc1O (stereo not given)	-2.4	i	1.1	12	73	17	98
COC(=O)C1=C(C)N(CCc2ccccc2)C(=O)C1(NS(=O)(=O)c1ccc(NC(C)=O)cc1)C(F)(F)F (stereo not given)	-0.3	i	1.3	15	30	6	102
O=C(O)CC/C(=C\c1ccccc1[N+](=O)[O-])c1nc2ccccc2s1	.	i	1.1	6	155	3	105
Cc1cccc(C)c1NC(=O)Cn1nnc(-c2ccc(CN3CCC(C)CC3)cc2)n1	.	i	0.84	.	.	1	102
CC(C)CN(C(=O)CN1CCN(c2ccc([N+](=O)[O-])cc2)CC1)c1c(N)n(CC(C)C)c(=O)[nH]c1=O	.	i	1.1	-27	102	1	109
Fc1ccccc1CNc1ccc(Cl)cc1	-2.3	i	0.78	4	148	8	104
C/C(=N\O)c1cc(Cl)ccc1O	.	i	0.98	.	.	.	99
CCOC(=O)c1[nH]c(C)c(C(=O)OCc2c(C)noc2C)c1C	-2.5	i	0.96	-29	70	23	98
O=C(c1cnc2ccc3ccccc3c2c1)c1cc(F)ccc1O	.	i	0.78	.	.	.	103
CNc1nc(-c2ccccn2)nnc1-c1ccccc1	-1.4	i	0.92	-11	114	-7	98
O=[N+]([O-])c1cccnc1-n1cnc2ccccc21	-1.2	i	0.88	-92	103	-3	107
CCOc1ccc2nc(N3CCCC(C(=O)NCC4CCCO4)C3)sc2c1 (stereo not given)	.	i	1	.	.	.	104
O=C1CCCC2=C1C1(CCCCC1)N=C(Nc1nc3ccccc3o1)N2	-1.2	i	0.84	-2	151	-8	99
CCOC(=O)C(=CNc1cc(C)nn1C(C)(C)C)C(=O)OCC	-1.3	i	1	.	.	4	102
O=C(CSc1nnc(Cn2nnc(-c3ccccc3)n2)n1-c1ccccc1)Nc1ccccc1	-0.7	i	0.94	25	106	0	104
O=C(COc1ccccc1)Nc1ccccc1N1CCCCC1	-0.5	i	0.86	-36	122	6	114

Quoted from the listing:
Result for `Cc1cccc(-c2noc(C3CCCCC3)n2)c1` in PKD1 inh: -3
Result for `O=C1CCCC2=C1C1(CCCCC1)N=C(Nc1nc3ccccc3o1)N2` in GALR2 agonist: -1.2
Result for `C/C(=N\O)c1cc(Cl)ccc1O` in RGS16-Gao HTS: 99
Result for `Cc1cccc(C)c1NC(=O)Cn1nnc(-c2ccc(CN3CCC(C)CC3)cc2)n1` in RGS16-Gao HTS: 102

Remaining list, next part:
SMILES	GALR2 agonist	HSV augment	HSV augment primary fold	Insulin prom inh	Insulin prom inh cell count	PKD1 inh	RGS16-Gao HTS
COc1ccccc1N1CCN(C(=O)CN2C(=O)c3ccccc3S2(=O)=O)CC1	.	i	1.2	.	.	.	102
CCOC(=O)C(Cc1ccc(Cl)cc1Cl)c1ccno1 (stereo not given)	.	i	1	0	46	-5	98
C=CCNC(=O)NC(=O)CSc1nnc(C(F)(F)F)n1C	.	i	0.77	43	101	7	101
CNC(=O)c1ccc(-c2sc3nc(N4CCOCC4)c4c(c3c2N)CCCC4)o1	1.0	i	1.1	.	.	3	97
C=CCNC(=O)C(=O)NCC1CCCN1CC (stereo not given)	.	i	0.98	.	.	-2	99
CCOc1ccc(-c2c(C)n([O-])c3c([n+]2=O)CCCCC3)cc1	.	i	0.96	5	121	-3	97
C=CCn1c(C)cc(C(=O)Cn2ncc(Cl)c(Cl)c2=O)c1C	-1.6	i	0.47	-28	57	6	92
Cc1cc(Cl)ccc1C(=O)C1CCCN(C(=O)c2cscn2)C1 (stereo not given)	.	i	1	.	.	3	98
O=C(NNC(=O)c1ccccc1Cl)c1ccccc1Cl	.	i	1.1	.	.	.	99
CCCCC(=O)Nc1nc(C)c(-c2csc(Nc3ccc(Cl)cc3)n2)s1	-1.7	i	0.96	41	42	-5	102
CCOC(=O)N1CCN(C(=O)COc2ccc(S(=O)(=O)Nc3ccc(OCC)cc3)cc2)CC1	0.7	i	1	-11	149	-6	103
COc1ccc(/C=C2\OC(=S)N(C)C2=O)cc1	-0.6	i	0.91	47	129	-9	119
CCOc1ccccc1N(C(=O)Nc1ccc(Cl)cc1)C1=NC(C)CS1 (stereo not given)	-1.3	i	0.94	.	.	-7	106
Cc1nnc(NC(=O)CSC2CCCCC2)s1	-2.3	i	0.88	30	164	-5	110
CCN(CC)S(=O)(=O)c1ccc(NC(=O)C(C)N(c2ccccc2)S(C)(=O)=O)cc1 (stereo not given)	-1.0	i	0.89	-219	78	4	97
COc1ccccc1OCCCCOc1ccccc1F	-4.8	i	1.1	.	.	-6	110
Cc1c(-c2ccccc2)nc2ccccc2c1C(=O)OCC(=O)Nc1ncc(C(F)(F)F)cc1Cl	-2.4	i	1.1	29	78	-9	102
CC(C)Cn1c(-c2csc(C(C)C)c2)n[nH]c1=S	.	i	0.96	.	.	4	100
CC(=O)c1c(N2CCOCC2)nc2ccc(Br)cc2c1-c1ccccc1	.	i	0.95	.	.	.	98
CN(C)c1nc(Cl)cc(N2CCOCC2)n1	-1.1	i	0.98	18	117	-6	89

5 structures from above, sorted by SMILES length, high to low.
SMILES	GALR2 agonist	HSV augment	HSV augment primary fold	Insulin prom inh	Insulin prom inh cell count	PKD1 inh	RGS16-Gao HTS
CCN(CC)S(=O)(=O)c1ccc(NC(=O)C(C)N(c2ccccc2)S(C)(=O)=O)cc1 (stereo not given)	-1.0	i	0.89	-219	78	4	97
C=CCNC(=O)NC(=O)CSc1nnc(C(F)(F)F)n1C	.	i	0.77	43	101	7	101
CC(C)Cn1c(-c2csc(C(C)C)c2)n[nH]c1=S	.	i	0.96	.	.	4	100
O=C(NNC(=O)c1ccccc1Cl)c1ccccc1Cl	.	i	1.1	.	.	.	99
Cc1nnc(NC(=O)CSC2CCCCC2)s1	-2.3	i	0.88	30	164	-5	110

Continuation:
SMILES	GALR2 agonist	HSV augment	HSV augment primary fold	Insulin prom inh	Insulin prom inh cell count	PKD1 inh	RGS16-Gao HTS
COC(=O)C(C)n1cnc2c(nnn2-c2ccc(OC)cc2)c1=O (stereo not given)	-2.3	i	1.1	7	157	-2	99
Cc1ccc(C2c3c(oc4ccccc4c3=O)C(=O)N2c2nnc(C)s2)o1 (stereo not given)	-1.6	.	.	.	.	3	.
CNC(=O)CS(=O)(=O)CC(=O)Nc1cc(OCCOC)c(Cl)cc1Cl	.	i	0.95	.	.	-1	100
CC1CCN(C(=O)CSc2nnc(CNc3ccc(F)cc3)n2Cc2ccco2)CC1	-0.8	i	1.1	.	.	-1	98
O=C(CCS(=O)(=O)c1cccs1)Nc1ccc(C(=O)NCc2ccc(F)cc2)cc1	-2.6	i	0.73	-25	107	1	101
CC(C)(C)c1ccc(S(=O)(=O)Nc2ccc3c(c2)COC3=O)cc1	.	i	0.97	-57	120	-3	97
O=C(Cn1nc(CNc2ccc(Cl)cc2)[n+]2c1CCCCC2)c1ccc(Cl)cc1	-0.1	i	0.9	-43	120	-1	101
CCn1nnc(NC(=O)c2ccccc2Br)n1	-1.4	i	0.79	58	119	1	98
C#CCOCCOCCOCCNc1nc(N2CCN(C(=O)Cn3cc(CCCN=C(N)N)nn3)CC2)nc(N2CCN(C(=O)[C@H]([C@@H](C)CC)n3cc(CCC(=O)O)nn3)CC2)n1	-1.5	i	0.98	36	116	-11	104
CC(=O)Nc1sc2c(c1C(c1ccccn1)N1CCN(C)CC1)CCCC2 (stereo not given)	.	i	1	.	.	10	104
O=C(c1ccc(Cl)c(S(=O)(=O)N2CCCCCC2)c1)N1CCCC1	.	i	1	.	.	.	93
O=c1c2cccnc2[nH]c(=S)n1CCC1=CCCCC1	-1.3	i	1.1	.	.	4	94
CC1=C(C(N)=O)C(c2ccccn2)n2nc(-c3ccccc3Cl)nc2N1 (stereo not given)	-1.0	i	0.99	.	.	3	84
O=C(CCSCc1ccccc1)Nc1ccc2c(c1)OCCO2	.	i	0.99	.	.	-3	138
N#CCCN1CCN(S(=O)(=O)c2ccc(S(=O)(=O)NC3CCCCC3)cc2)CC1	0.1	i	0.79	.	.	-1	108
Cn1c(=O)c2c(ncn2CC(=O)OCC(=O)Nc2ccc(Cl)cc2Cl)n(C)c1=O	-0.4	i	0.83	36	91	4	109
Cc1ccc(NNC(=O)C(O)(c2cccc(C(F)(F)F)c2)c2cccc(C(F)(F)F)c2)cc1	-1.6	i	0.93	29	75	-1	106
Cc1noc2ncnc(Oc3ccccc3)c12	-1.2	i	0.81	23	110	-2	104
C=CCn1c(-c2cc(OC)c(OC)c(OC)c2)n[nH]c1=S	-1.9	i	1.1	-162	154	-2	102
Cc1cccc(C(C)C)c1-n1nnnc1-c1ccccc1	0.0	i	0.82	.	.	-11	106
COc1ccc(Cl)cc1NC(=O)C(C)N1CCN(C/C=C/c2ccccc2)CC1 (stereo not given)	0.2	i	0.99	13	83	-3	117
CC(=O)c1c(N2CCN(c3cccc(Cl)c3)CC2)nc(=S)n(-c2ccccc2)c1C	1.4	i	0.92	31	143	2	102
COc1ccc(N2C(=O)CC(Nc3cccc(C(C)=O)c3)C2=O)cc1OC (stereo not given)	-2.2	i	0.98	-1	98	0	100
CC(C)OCCCn1c(-c2ccco2)nc2nc3ccccc3nc21	5.0	.	.	-100	125	-6	92
CN(C)c1oc(-c2ccc(Cl)cc2)nc1S(=O)(=O)c1ccccc1	-2.3	i	0.87	2	128	0	91
C=C(C)c1ccc(C(C)(C)NC(=O)N(Cc2ccccc2)Cc2ccco2)cc1	-1.2	i	1	-57	75	-3	114
CCOC(=O)c1[nH]c2ccc(Br)cc2c1NC(=O)CNC	-2.4	i	0.97	0	82	-2	89
NC(=O)C1=C[C@@H](C2CCCCC2)C[C@@H](OCCCCO)O1	.	i	0.83	.	.	19	101
Clc1ccc(C2C3=C(Nc4ncnn42)c2ccccc2CC3)cc1 (stereo not given)	-3.4	i	0.96	12	113	1	104
